Mtb betalactam: beta-lactam sensitization of Mtb H37Rv, H37Rv | M. tuberculosis H37Rv growth with meropenem, percent inhibition; hits of this screen are not shown here | inhibition, % at 25 µM | actives 0.27% (n = 330,000) | AID 434955, 2010;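 active means about 74% or more and at least 40 points above the plate without the antibiotic, then above 30% in a dose series; inconclusive means first-round hits that could not be retested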;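 further: growth measured after seven days incubation then overnight dye step; 0% = bacteria only wells and 100% = bacteria with antibiotic; twin plates without the antibiotic show which effects depend on it; some results filed as inactive read as strong as hits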
The depositor's hits bear a star; ? = inconclusive. The list is partial, so the mix of outcomes need not match the whole.

SMILES	Mtb betalactam
CCN(C(=O)C(C)Sc1nnc(-c2ccncc2)n1C)C1CCCCC1 (stereo not drawn)	-2.1
CC1CCN(C(=O)c2[nH]cnc2C(=O)N2CCN(C(=O)OC(C)(C)C)CC2)CC1	-4.7
CCc1nnc(NC(=O)c2oc3ccccc3c2COC(C)C)s1	-3.2
CC(C)C[C@@]12C(=O)N(c3cccc(Cl)c3)C(=O)N1[C@H](c1ccc(Br)cc1)[C@@H]1C(=O)N(C(C)(C)C)C(=O)[C@@H]12	-8.9
COc1ccc(NC(=O)CN2CCN(CC#N)CC2)cc1	-4.6
COc1ccc(CCN(C)C(=O)COc2cccc(-n3cnnn3)c2)cc1OC	-9.2
CN(C)S(=O)(=O)c1ccc(C(=O)OCC(=O)N2CC3(C)CC2CC(C)(C)C3)cc1 (stereo not drawn)	5.8
CC(C)(C)OC(=O)N1CCC(CC2CC(c3ccccc3)=NO2)(C(=O)NCc2ccccc2)CC1 (stereo not drawn)	-4.8
COc1ccc(C2=CC(=O)C[C@H](c3ccc(OC)c(OC)c3)C2)cc1	42.2
CCN(C[C@H]1N[C@@](Cc2ccccc2)(C(=O)OC)[C@H]2C(=O)N(Cc3ccccc3)C(=O)[C@@H]12)C(=O)Nc1ccc(F)cc1	-3.5
COc1ccccc1C=NNC(=O)c1ccccc1OCCOc1ccccc1	5.3
Cc1onc(-c2ccccc2)c1C(=O)OCC(=O)N(C)c1ccccc1	2.0
CC(C)c1ccc(NC(=O)CN2C(=O)NC(Cc3c[nH]c4ccccc34)C2=O)cc1 (stereo not drawn)	2.8
COC(=O)C1=C(c2cccc(OCc3ccccc3)c2)C[C@@H]2CC[C@H]1N2C(=O)NCc1ccc(F)cc1	-3.4
CCOc1ccc(NS(=O)(=O)c2ccc(NC(=O)c3ccccn3)cc2)cc1	0.9
CCCC(C)NC(=O)CN(Cc1ccco1)S(=O)(=O)c1ccccc1 (stereo not drawn)	0.7
Cc1noc(C)c1COc1ccccc1C(=O)N1CCN(S(=O)(=O)c2cccc([N+](=O)[O-])c2)CC1	-2.0
COc1ccc(/C=C/C(=O)Nc2ccccc2F)cc1S(=O)(=O)N1CCOCC1	-2.3
O=[N+]([O-])c1ccccc1Oc1ccc(S(=O)(=O)N2CCOCC2)cc1	-0.8
O=C(Cc1ccccc1[N+](=O)[O-])N1CCOCC1	-4.1
COc1ccc(C2=NOC(Cn3nc(-c4ccccc4)cc3C(=O)NCc3ccccc3OC)C2)cc1 (stereo not drawn)	-2.2
O=C(NCc1ccccc1)c1cccc(S(=O)(=O)N2CCCCC2)c1	5.6
C[C@@H](NC(=O)Cn1ccc(N)nc1=O)c1cccc2ccccc12	6.0
COC(=O)c1cc(COC(=O)CNC(=O)c2cccc(C)c2)oc1C	-1.5
CCCn1c(N)c(N(CCOC)C(=O)C2CCCC2)c(=O)[nH]c1=O	-4.4
SMILES	Mtb betalactam
Cc1ccc(S(=O)(=O)CCC(=O)N(Cc2nnc(-c3ccc(Cl)cc3)o2)C2CC2)cc1	-4.8
COc1ccc(OC)c(-c2csc(NC(=O)COC(=O)c3ccc(NC(=O)CC#N)cc3)n2)c1	-1.6
CN(c1ccccc1)S(=O)(=O)c1ccccc1Br	8.0
O=C(CNC(=O)c1ccc(Br)cc1)Nc1ccc2c(c1)CCC2	-3.6
Cc1ccc(C(C)C)c(OCCCn2ccnc2C)c1	-4.0
Nc1nnc(SCC(=O)NNC(=O)c2ccc(Cl)cc2)s1	3.9
CN(C(=O)COn1nnc2ccc(Cl)cc21)C1CCS(=O)(=O)C1 (stereo not drawn)	5.4
COc1ccc(OC)c(S(=O)(=O)N2CCN(C(=O)NC3CCCCC3)CC2)c1	4.2
O=[N+]([O-])c1cc(O)c(O)c([N+](=O)[O-])c1	0.0
CCCCn1c(CCC(=O)O)nc2cc(S(=O)(=O)N3CCCC3)ccc21	-10.8
COC(=O)C1=C(c2ccc(-c3ccccc3)c(F)c2)C[C@@H]2CC[C@H]1N2C(=O)NC(C)C	5.8
CC(O/N=C(\N)c1ccccc1)C(=O)Nc1cccc(C(F)(F)F)c1 (stereo not drawn)	-2.5
COCCn1c(=O)[nH]c2cc(C(=O)Nc3cc(C)cc(C)c3)ccc2c1=O	-2.2
O=C(O)c1c(Cl)cccc1Cl	0.2
CCOC(=O)c1nn(-c2ccc(Cl)cc2)c(=O)c(C#N)c1C	-1.2
Cc1oc(-c2cccs2)nc1CNC[C@H]1O[C@@H](n2cnc3c(N)ncnc32)[C@H](O)[C@@H]1O	-9.2
O=C1CN(C(=O)COC(=O)[C@@H]2CC(O)CN2S(=O)(=O)c2ccc(Cl)cc2)c2ccccc2N1 (stereo partly drawn)	-2.2
N#Cc1ccc(OCC(=O)N(C2CCCCC2)C2CCS(=O)(=O)C2)cc1 (stereo not drawn)	-7.1
CC(C)(C)Cc1nnc(NS(=O)(=O)c2ccc([N+](=O)[O-])cc2)s1	8.0
CC(C)NCC(O)c1ccc2ccccc2c1 (stereo not drawn)	-6.7
C[C@@H]1O[C@@H](O[C@H]2[C@H](O)[C@@H](O)[C@H](Oc3c(-c4ccc(O)c(O)c4)oc4cc(O)cc(O)c4c3=O)O[C@@H]2CO)[C@H](O)[C@H](O)[C@H]1O	3.5
COCCN(C(=O)CC1CCCCC1)c1c(N)n(CC(C)C)c(=O)[nH]c1=O	-1.4
CN(C(=O)COC(=O)c1n[nH]c(=O)c2ccccc12)c1ccccc1	-8.7
CNC[C@@H]1Oc2c(NC(=O)Nc3ccccc3)cccc2C(=O)N([C@@H](C)CO)C[C@H]1C	1.5
CC1CCN(C(=O)COC(=O)/C=C/c2ccc([N+](=O)[O-])cc2)CC1	37.6
SMILES	Mtb betalactam
CCOC(=O)[C@@H]1[C@H]2COc3ccc(Br)cc3[C@@H]2N2C(=O)N(c3ccc(F)cc3)C(=O)[C@@]12C	-2.7
CN1CCN(S(=O)(=O)c2cccc(C(=O)Nc3cc(C(N)=O)cc(C(N)=O)c3)c2)CC1	-2.3
COc1ccc(/C=C2\SC(=O)N(CCNC(=O)Cn3[nH]c(=O)c4ccccc4c3=O)C2=O)cc1	5.2
CCN(CC)c1ccc(C(=O)OCC(=O)Nc2ncccn2)cc1	-1.1
CC(C)=CCC/C(C)=C/CC/C(C)=C/COc1ccc2ccc(=O)oc2c1	13.8
CCOc1ccc(NC(=O)COC(=O)CCC(=O)c2cccs2)cc1	0.5
Cc1cccc(C)c1NC(=O)CN1CCN(C(=O)c2ccc(OCc3cn4ccccc4n3)cc2)CC1	-9.8
O=C(O)c1[nH]c2ccccc2c1C(c1cc(Br)ccc1O)c1c(C(=O)O)[nH]c2ccccc12	-0.7
Cn1c2ccsc2c2ncn(Cc3ccccc3F)c(=O)c21	3.1
CCOc1ccc(C(c2c(NC(=O)c3ccco3)sc(C)c2C)N2CCOCC2)cc1 (stereo not drawn)	1.9
COc1cccc(NC(=O)COC(=O)/C=C/c2c(C)nn(-c3ccccc3)c2C)c1	18.6
CCCCN(C(=O)c1nn(C)c(=O)c2ccccc12)c1c(N)n(CC(C)C)c(=O)[nH]c1=O	0.9
CC1CCC(N2CCN(C(=O)COc3ccccc3)CC2)CC1 (stereo not drawn)	-24.8
NCCc1ccn[nH]1	2.0
COc1ccc(-n2nc(C(=O)NCC(=O)N(C)Cc3ccccc3)c3ccccc3c2=O)c(OC)c1	-5.1
Cc1ccc(/C=C/C(=O)OCC(=O)NCc2cccs2)o1	-1.2
Cc1nc(SCc2nc3ccc(Cl)cc3[nH]2)c2oc3ccccc3c2n1	32.0
C=CCN1CC[C@]23c4c5ccc(O)c4OC2C(O)CC[C@@]3(O)[C@H]1C5 (stereo partly drawn)	-0.6
O=C(CN1C(=O)NC2(CCCCCCC2)C1=O)Nc1c(Cl)cccc1Cl	-5.7
CC(CCc1ccccc1)NC(=O)CCNC(=O)c1ccccc1Cl (stereo not drawn)	-9.6
CC(=O)Oc1ccc2nc(/C=C/c3ccccc3)oc(=O)c2c1	46.2
COc1ccc(CC(=O)Nc2cccc(C(C)=O)c2)cc1S(=O)(=O)N1CCOCC1	-1.7
CC(C)(C)N(Cc1ccccc1)C(=O)COC(=O)/C=C/c1ccc2c(c1)OCO2	7.8
Cc1sc2nc(CSCC(=O)Nc3cc(F)ccc3F)[nH]c(=O)c2c1C	-0.7
C#CCOCCOCCOCCNc1nc(N2CCN(C(=O)CCCCCCCCCCNC(=O)[C@@H](CCSC)n3cc(CCO)nn3)CC2)nc(N2CCN(C(=O)CCCCCCCCCCNC(=O)[C@H]([C@@H](C)CC)n3cc(CCCCCN)nn3)CC2)n1	97.9

Five entries picked at random from those above, as already listed:
SMILES	Mtb betalactam
Cc1ccc(/C=C/C(=O)OCC(=O)NCc2cccs2)o1	-1.2
CCc1nnc(NC(=O)c2oc3ccccc3c2COC(C)C)s1	-3.2
Cc1onc(-c2ccccc2)c1C(=O)OCC(=O)N(C)c1ccccc1	2.0
CCOC(=O)c1nn(-c2ccc(Cl)cc2)c(=O)c(C#N)c1C	-1.2
COc1ccc(/C=C/C(=O)Nc2ccccc2F)cc1S(=O)(=O)N1CCOCC1	-2.3

Next section:
SMILES	Mtb betalactam
Cc1ccc(C)c(NC(=O)CCN2CCN(C)CC2)c1	-0.2
Cc1cc(C)nc(NNS(=O)(=O)c2ccc(Cl)cc2)n1	-0.9
Cc1ccc(CSc2ccc(S(=O)(=O)N3CCCC3)cn2)cc1	-3.5
COC(=O)c1sc(NC(=O)COc2cccnc2[N+](=O)[O-])c(C(=O)OC)c1C	-3.7
O=C(CCC(=O)c1cccs1)NNC(=O)c1cc(Cl)ccc1Cl	0.8
COc1ccc(C(=O)COC(=O)c2ccccc2O)c(OC)c1	92.2
CC(=O)OC1[C@H](Oc2c(O)c(C)c3c4c2[C@@H](C)CC[C@@H]4[C@@H](C)C[C@@H]3C=C(C)C)OC[C@@H](O)[C@@H]1O (stereo partly drawn)	9.9
COC(=O)c1c(NC(=O)CN2C(=O)C(=O)N(C(C)C)C2=O)sc(C)c1C	0.8
O=C(COC(=O)c1cc(S(=O)(=O)N2CCOCC2)ccc1Cl)NC1CC1	-7.9
CC(C)(C)C(=O)CSc1ccc(S(=O)(=O)N2CCN(Cc3ccccc3)CC2)cn1	-6.1
COc1cccc(-c2ncc3ccccc3c2COC(=O)c2ccc(F)cc2)c1	-1.3
COC(=O)C1=C(c2ccc(OC)c(OC)c2)C[C@@H]2CC[C@H]1N2C(=O)NC1Cc2ccccc2C1	-10.8
C/C(=N\NC(=O)c1ccccc1)C1C2C=CC(C2)C1(C)C (stereo not drawn)	?
Cc1ccc(C)c(NC(=O)CN(C)C(=O)c2cccc(Oc3ccccc3)c2)c1	-10.5
COc1ccc(N2CCN(C(=O)c3cc(C4CC4)nn3-c3ccccc3)CC2)cc1	-1.2
CS(=O)(=O)c1ccc(Cl)c(NC(=O)CSc2n[nH]c(-c3cccs3)n2)c1	0.3
CC1CCCC(NC(=O)CSC2=Nc3ccccc3C3CC=NN23)C1C (stereo not drawn)	10.7
O=C(COC(=O)c1ccc(F)cc1)Nc1ccc2c(c1)OCO2	-1.3
COc1ccc(-c2sc3cc4c(cc3c2C#Cc2cncn2C)OCO4)cc1	98.7
O=S(=O)(NCC(c1ccco1)N1CCCCC1)c1cccc(C(F)(F)F)c1 (stereo not drawn)	-0.8
COc1cccc([C@@H]2CC=C(C(=O)O)[C@H](c3ccccc3F)N2S(=O)(=O)c2ccc(C)cc2)c1	-3.7
O=C(Nc1cccc(S(=O)(=O)N2CCCCC2)c1)c1cc2ccccc2o1	81.0
CC(C)(C)OC(=O)NCCCCCNC(=O)c1[nH]cnc1C(=O)Nc1ccccc1	3.3
CN(C(=O)C1CCN(S(=O)(=O)c2ccccc2[N+](=O)[O-])CC1)C1CCCCC1	-7.8
CCOc1ccc(/C(CCC(=O)O)=N/NC(=O)c2cccc(S(=O)(=O)Nc3ccccc3OC)c2)cc1	-12.4

6 compounds out of the list, arranged by number of heavy atoms, ascending.
SMILES	Mtb betalactam
Cc1ccc(C)c(NC(=O)CCN2CCN(C)CC2)c1	-0.2
COc1ccc(C(=O)COC(=O)c2ccccc2O)c(OC)c1	92.2
COc1ccc(-c2sc3cc4c(cc3c2C#Cc2cncn2C)OCO4)cc1	98.7
COc1cccc(-c2ncc3ccccc3c2COC(=O)c2ccc(F)cc2)c1	-1.3
CC(C)(C)OC(=O)NCCCCCNC(=O)c1[nH]cnc1C(=O)Nc1ccccc1	3.3
COc1cccc([C@@H]2CC=C(C(=O)O)[C@H](c3ccccc3F)N2S(=O)(=O)c2ccc(C)cc2)c1	-3.7

The results go on.
SMILES	Mtb betalactam
COc1ccc(C(C)=O)c(Oc2ccc(S(=O)(=O)N3CCOCC3)cn2)c1	-3.8
O=C(CNc1ccc(F)cc1Cl)Nc1cccc(S(=O)(=O)N2CCCCC2)c1	4.4
CCC(CC)CN1CCN=C1Nc1ccccc1	-8.3
CC(=O)N1CCN(C(=O)CN2C(=O)NC(C)(c3ccc4ccccc4c3)C2=O)CC1 (stereo not drawn)	1.5
CCN1CCN(c2ccc(NC(=O)COc3ccc(Cl)cc3C)cc2)CC1	-8.4
CCOc1cc(-c2sc(Nc3cc(C)ccc3OC)n[n+]2-c2ccccc2)ccc1OC	98.1
C#CCOCCOCCOCCNc1nc(N2CCN(C(=O)[C@H](CO)n3cc([C@@H](N)C(C)C)nn3)CC2)nc(N2CCN(C(=O)[C@H](CCCCN)n3cc([C@@H](N)[C@H](C)CC)nn3)CC2)n1	10.7
COc1ccc(CCNC(=O)COC(=O)CNS(=O)(=O)c2ccc(SC)c([N+](=O)[O-])c2)cc1	-0.1
CCCCN(C(=O)CSc1nc2ccccc2n1CC)C1CCS(=O)(=O)C1 (stereo not drawn)	-3.2
COc1ccc(NC(=O)CC2SC(N3CCCC3)=NC2=O)cc1Cl (stereo not drawn)	-1.2
CC(OC(=O)c1cccc(N(C)C)c1)C(=O)N1CCc2ccccc2C1 (stereo not drawn)	-5.0
O=C(COC(=O)c1ccccc1O)NC(=O)c1ccc(OC(F)F)cc1	-0.5
Cc1ccc(NC(=S)NC(=O)C2CCCC2)c(Br)c1	-3.5
c1nc(NCc2ccc3c(c2)OCO3)c2cc(-c3ccoc3)ccc2n1	2.4
COc1ccc(CN(C)C(=O)c2ccc(OCC(=O)N3CCOCC3)c(OC)c2)cc1	3.8
